RECQ1 helicase: RECQ1 (human) helicase inhibition. RECQ1 DNA unwinding, red fluorescence kinetic read. Potency, µM (doses to about 57.3 µM), inactives show top-dose activity, negative = inhibition, hits mostly inhibitors. 240,000 compounds, 0.54% hits;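 note: plate controls were vehicle for no effect and no enzyme for full effect; nearly all actives have a fitted effect of over 30% in size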
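RECQ1T1 50 nM; forked duplex (20 bp + 30-nt ss tails) 200 nM, ATP 2 mM final; pH 8.0, 2 mM MgCl2, 2.5 ug/ml poly(dI-dC); 15 min compound preincubation; discontinuous kinetic read over 2 h at RT.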
ALDH1A1 inh: inhibitors of human aldehyde dehydrogenase 1A1. P00352. Purified ALDH1A1, NADH fluorescence, propionaldehyde substrate. Potency, µM (series often up to 75.3 µM), without a hit: at the highest dose activity, negative = inhibition, actives largely listed as inhibitors. 220,000 compounds, 7.3% hits. AID 1030; active = well fitted inhibition curve with a large enough effect, not every such curve was filed as active; inconclusive = small, poorly fitted or top-dose-only effect, or another doubt; inactive = no such curve, though single readings can be large or run the other way;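 note: plate controls were no enzyme wells and a reference inhibitor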
Target sequence (P00352 whole entry, looked up): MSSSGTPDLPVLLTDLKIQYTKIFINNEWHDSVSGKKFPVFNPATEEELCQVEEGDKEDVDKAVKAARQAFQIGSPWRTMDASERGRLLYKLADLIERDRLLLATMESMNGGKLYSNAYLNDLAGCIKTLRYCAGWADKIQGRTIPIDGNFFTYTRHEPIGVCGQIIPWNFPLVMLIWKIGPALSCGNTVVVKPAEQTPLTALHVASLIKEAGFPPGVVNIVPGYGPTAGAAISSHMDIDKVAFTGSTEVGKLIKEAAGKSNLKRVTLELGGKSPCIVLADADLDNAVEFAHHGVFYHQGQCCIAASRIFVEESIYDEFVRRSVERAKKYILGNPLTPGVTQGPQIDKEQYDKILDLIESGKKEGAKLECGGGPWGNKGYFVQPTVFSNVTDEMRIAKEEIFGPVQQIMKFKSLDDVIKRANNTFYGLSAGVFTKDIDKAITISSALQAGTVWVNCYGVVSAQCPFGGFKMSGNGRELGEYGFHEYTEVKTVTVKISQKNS
SMN2 splice up: enhancers of SMN2 splice variant expression. HEK293 SMN2-luciferase splicing reporter, luminescence, 30-36 h. Potency, µM (series often up to 46.1 µM), inactives show at the top dose activity change, positive = activation, most hits filed as activators. 210,000 compounds, 2.8% hits; note: % of control where 0% means no effect; nearly all actives have a fitted effect of over 55% in size
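HEK293 cells carry an SMN2 minigene-luciferase reporter in which exon 7 inclusion puts luciferase in frame. Cells were seeded at 2000 cells/well, attached for 10-12 hours, then exposed to compounds for 30-36 hours at 37C before ONE-Glo luminescence.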
Luc counter: blocks Kinase-Glo luciferase, a counter-screen artifact; Q27757; Kinase-Glo luciferase, ATP luminescence, 8 min; Potency, µM (titrated, usually from 38.3 µM), inactives show top-dose activity change, negative = inhibition, actives largely listed as inhibitors; 200,000 compounds, 0.28% hits; AID 1379; note: % is set by controls: 0 for no effect and ±100 for the full control effect; nearly all actives have a fitted effect of over 60% in size
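Compounds were added to a substrate mix at pH 7.2 (50 mM imidazole, 10 uM ATP, within the enzyme's linear range), followed by Kinase-Glo detection reagent; luminescence was measured after 8 minutes at ambient temperature.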
Lamin A splicing: modulators of lamin A splicing. HeLa LMNA splicing GFP/RFP minigene ratio, 48 h. Potency, µM (highest dose often 46.1 µM), for the others: at the top dose ratio change, negative = inhibition, hits mostly inhibitors. 200,000 compounds, 0.01% hits. AID 1487; active = well fitted inhibition curve with a large enough effect in the signal ratio, with a control signal flat, not every such curve was filed as active; inconclusive = small, poorly fitted or top-dose-only effect, or effect the other way, or a change in a side signal; the % refers to the signal ratio; note: % is set by controls: 0 for no effect and ±100 for the full control effect
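S3 HeLa stable clones carrying a lamin A-EGFP splicing minigene plus DsRed2 were seeded at 600 cells/well in Opti-MEM with 2% FBS, pin-dosed and incubated 48 h at 37°C. Acumen cytometry (488 nm) gave the GFP/RFP total-intensity ratio.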
Tau fibril ThT: inhibitors of human tau fibril formation, thioflavin T binding | AID 1460 | P10636 | 270,000 compounds, 2.1% hits | Potency, µM (top dose mostly 57.4 µM), for the others: at the highest dose activity, negative = inhibition, actives largely listed as inhibitors | recombinant tau K18 P301L (four-repeat tau fragment), heparin-induced fibrillization, ThT fluorescence; note: % is set by controls: 0 for no effect and ±100 for the full control effect; nearly all actives have a fitted effect of over 55% in size
Target sequence (P10636 561-689 P618L limits assumed): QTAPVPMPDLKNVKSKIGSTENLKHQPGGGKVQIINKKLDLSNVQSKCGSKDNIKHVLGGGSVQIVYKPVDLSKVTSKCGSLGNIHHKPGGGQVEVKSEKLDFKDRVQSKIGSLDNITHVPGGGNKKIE
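K18 P301L tau (15 uM + 0.24 uM Alexa 594-tagged), heparin 20 uM, NaOAc pH 7, 6 h 37 C; ThT 30 uM, 1 h RT, ex 450/em 510 nm.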
Starred values were filed as active, the others as inactive; i = inactive; ? = inconclusive; . = not tested or not shown; [ ] = remark or other dose. Unless noted, calls come from the whole dose curve; as a rule, active = well fitted curve in the direction sought with a large enough effect; inconclusive = small, poorly fitted or top-dose-only effect, or another doubt; inactive = no such curve, though single readings can be large; an effect the other way counts as inactive or inconclusive. Potency is the fitted concentration of half-maximal effect. This is a subset (hit frequency here may not be typical).

SMILES | RECQ1 helicase | ALDH1A1 inh | SMN2 splice up | Luc counter | Lamin A splicing | Tau fibril ThT
C=CCn1c(COc2ccc(Cl)cc2)nnc1SCC(=O)Nc1ccc(S(N)(=O)=O)cc1 | -3.6% | 1.8% | 13.5% | -2.7% | 9.7% | 1.0%
CC(C)[C@H](Nc1ccc(S(=O)(=O)N2CCOCC2)cc1[N+](=O)[O-])C(=O)OCC(=O)N(C(C)C)C(C)C | 3.6% | ? | -21.4% | -0.5% | ? | 7.2%
Cc1cc(C)c(S(=O)(=O)Nc2cccc(/C=C/C(=O)O)c2)c(C)c1 | 6.8% | 13.3% | 12.4% | 0.9% | -11.4% | 4.9%
COc1ccc(Cl)cc1CSc1ncn[nH]1 | -2.2% | . | . | . | . | -10.8%
CC1=C(C(=O)Nc2ccccc2)C(c2cccs2)n2nnnc2N1 (stereo not drawn) | -5.3% | 11.2µM* | -2.1% | 4.6% | -11.4% | -15.0%
CC(=O)c1cc(C#N)c(N2CCCCC2)nc1C | i | ? | -15.5% | -1.3% | . | 0.8%
CC(C)(C)NC(=O)CSc1nc(O)cc(=O)[nH]1 | 0.7% | 1.3% | 0.4% | 0.6% | -9.1% | ?
COc1ccc(CC(=O)c2cc(OC)c(OC)cc2CC(=O)O)cc1OC | -3.2% | -2.2% | -10.1% | 0.5% | -6.0% | -6.1%
CN1c2ccccc2Oc2c(c(=O)n(C)c(=O)n2C)C1c1cccc([N+](=O)[O-])c1 (stereo not drawn) | -5.8% | 11.4% | -19.8% | 2.4% | 1.5% | -8.5%
CC(C)CNC(=O)C1CCN(c2ccc(S(=O)(=O)N3CCOCC3)cc2Cl)CC1 | -15.7% | 15.7% | -37.5%[inhibitor] | -0.2% | -18.9% | -5.1%
CCCCOc1ccccc1-c1cc(C(=O)O)[nH]n1 | i | 2.7% | -4.7% | 3.2% | 10.2% | 10.3%
Fc1ccc(-c2cc3nc(-c4ccccc4)cc(N4CCN(CCN5CCOCC5)CC4)n3n2)cc1 | -14.2% | ? | -6.6% | 9.2% | ? | ?
CN(C)c1oc(-c2ccccc2)nc1C#N | -16.8% | ? | -5.0% | -1.1% | 9.6% | 2.1%
CCOc1ccc(NC(=O)c2cnsn2)cc1 | -17.6% | 5.1% | ? | -3.5% | 6.2% | 0.3%
COc1ccccc1NC(=O)CN1CCC(n2c(C)nc3cc(F)ccc32)CC1 | -16.7% | 2.1% | -9.8% | -2.8% | -17.6% | -0.6%
N#Cc1cnn2cc(-c3ncc(C(F)(F)F)cc3Cl)cnc12 | 5.7% | ? | 17.6% | 3.1% | 4.1% | -17.8%
COc1cc(CO)c(Br)cc1OCC(N)=O | i | 4.7% | -13.3% | 1.1% | -7.2%[46 µM] | 8.2%
O=C(CSc1ncn(-c2ccccc2)n1)c1cccs1 | 1.6% | ? | ? | -9.9% | 10.0% | -11.7%
CC(C)c1c(Cl)c(O)c(-c2ccccc2)c(=O)n1-c1ccc(F)cc1 | -21.4% | ? | 1.9% | 2.1% | -9.6% | -11.6%
COc1cc(/C=C(/C#N)c2ccc(F)cc2)ccc1Oc1ccc([N+](=O)[O-])cn1 | -3.2% | -1.1% | -86.1%[inhibitor] | -1.9% | ? | -13.3%
COc1ccc(-c2cc(C(F)(F)F)c3c(n2)sc2c(O)cc(=O)[nH]c23)c(OC)c1 | 9.1% | ? | ? | 1.1% | ? | 14.1µM*
CCCn1nnc(NC(=O)c2ccc(-c3cc(Cl)ccc3Cl)o2)n1 | i | ? | 3.0% | 1.0% | . | -1.9%
O=C(/C=C/c1cn(-c2ccccc2)nc1-c1cccs1)NCCN1CCOCC1 | 32.3%[activator] | ? | . | . | . | -7.1%
COc1ccc(OC)c(-n2c(-c3cc(-c4ccccc4)n[nH]3)n[nH]c2=S)c1 | -11.5% | -11.2% | 8.1% | 0.5% | -10.7% | -8.5%
COc1ccccc1NC(=O)CC(c1ccc(OC(C)C)cc1)c1ccccc1OC (stereo not drawn) | -8.0% | ? | -10.6% | 1.2% | ? | 8.3%
O=C(Nc1ccccc1Oc1ccccc1)c1cccc([N+](=O)[O-])c1 | -1.1% | 1.7% | -6.9% | -6.4% | 4.0% | -0.2%
Cc1ccc(/C=C2/NC(=O)N(c3ccccc3)C2=O)o1 | -0.9% | 10µM* | -3.9% | -3.5% | ? | 25.1µM*
COc1cc(C(=O)OCCC(C)C)cc(OC)c1O | -2.1% | ? | . | . | . | -5.1%
O=C(/C=C/NNC(=O)c1ccccc1)c1ccc([N+](=O)[O-])cc1 | -5.6% | -4.0% | . | ? | . | -8.1%
O=c1cc(O)c2sc3nc(-c4ccccc4)cc(C(F)(F)F)c3c2[nH]1 | 8.6% | 1.7% | -30.5%[inhibitor] | 2.1% | -2.7% | 2.2%
CCOC(=O)c1cc(C#N)c(Oc2ccc(F)cc2)nc1-c1ccccc1 | i | -1.8% | -16.1% | 0.2% | 4.5% | -3.0%
CC(c1ccccc1)C1CC(=O)N(CC(=O)O)C1=O (stereo not drawn) | 6.5% | 8.3% | 15.4% | 2.5% | -6.2% | 0.0%
Cc1cccc(OCC(=O)NNC(=O)CSc2ncc(C#N)c(N)n2)c1 | -9.1% | -10.3% | -11.7% | -5.1% | 5.3% | -5.8%
COc1ccc(CN2CCNC(=O)C2CC(=O)NCCC2=CCCCC2)cc1OC (stereo not drawn) | -7.4% | ? | . | -1.1% | 2.6%[46 µM] | -13.0%
COc1cccc(OCC(=O)NNC(=O)c2ccc(-c3ccccc3)cc2)c1 | i | 9.4% | 10.3% | -5.0% | 12.8% | -14.3%
CCn1c(Cc2ccccc2)nnc1SCC(=O)Nc1ccccc1 | -6.3% | 3.6% | 2.4% | -2.6% | -4.8% | -0.3%
N#CC(c1ccccc1)(c1ncc(C(F)(F)F)cc1Cl)N1CCOCC1 (stereo not drawn) | -7.4% | 18.0% | -14.1% | -5.1% | 9.5% | -0.8%
CC(C)c1ccc(CNc2nc3nc4c(c(=O)n3[nH]2)CCC4)cc1 | i | 3.4% | -2.7% | -0.7% | ? | -1.7%
N#C/C(=C\c1ccc([N+](=O)[O-])o1)C(=O)Nc1ccc(F)cc1 | i | 11.2µM* | 6.3% | -0.2% | ? | 14.1µM*
CC1=C(C(=O)OCc2ccccc2)C(c2cccnc2)n2nnnc2N1 (stereo not drawn) | -11.3% | ? | -6.7% | 8.3% | ? | 4.1%
N#Cc1cn(CC(=O)N2CCCC2)c2ccccc12 | 1.1% | 5.0% | -0.9% | -0.7% | 3.7% | 0.3%
CC(=O)c1ccc(NC(=O)CSc2nnc(-c3ccoc3C)n2Cc2ccccc2)cc1 | -6.8% | ? | -40.5%[inhibitor] | 0.0% | -5.3% | -17.1%
COc1ccc(/C=C(/Sc2nnc(-c3ccc(Cl)cc3)o2)C(=O)O)cc1 | -3.6% | -15.4% | 11.9% | 2.0% | -26.4%[46 µM] | ?
O=C(CSc1ncn(-c2ccccc2)n1)Nc1nc2c(s1)CCCC2 | -5.8% | 28.2µM* | ? | 0.4% | 0.3% | ?
Fc1cccc(Cl)c1CSc1ncn[nH]1 | i | 2.8% | 8.3% | -5.4% | 4.9% | 9.4%
O=C(Nc1ccc2oc(=O)ccc2c1)c1cccnc1Cl | -7.5% | ? | -5.7% | -0.5% | -9.5% | -4.9%
O=C(c1ccncc1)N1CCN(C2CCCCC2)CC1 | -6.9% | -11.8% | . | -2.6% | ? | -5.0%
CC(C)NC(=O)C(OC(=O)c1ccccc1)C(OC(=O)c1ccccc1)C(=O)O (stereo not drawn) | -3.4% | 1.0% | -8.1% | 0.1% | 11.1% | 0.5%
CCC1CCCCN1CCCNC(=O)CCCNC(=O)Cn1cnc2sc3c(c2c1=O)CCCC3 (stereo not drawn) | i | -13.0% | -0.2% | 2.7% | . | -2.1%
O=C(Nc1ccc2oc(=O)ccc2c1)c1ccco1 | 2.9% | ? | -1.8% | -22.6% | 1.7% | -17.0%

Going on with the list:
SMILES | RECQ1 helicase | ALDH1A1 inh | SMN2 splice up | Luc counter | Lamin A splicing | Tau fibril ThT
COc1cccc(/C=N/n2c(-c3cccs3)n[nH]c2=S)c1 | -3.0% | ? | -8.0% | -4.3% | 2.1% | ?
CCOC(=O)c1cc(C#N)c(Oc2ccccc2OC)nc1-c1ccccc1 | -22.3% | -1.7% | -29.3% | -0.9% | 8.0% | -12.9%
COC(=O)C1=NN(c2cccc(C)c2)C2C(=O)N(c3ccccc3OC)C(=O)C12 (stereo not drawn) | -6.6% | ? | -27.9% | 1.4% | -1.8% | -0.7%
CCOC(=O)C1=NN(c2ccccc2)C2C(=O)N(c3ccccc3OC)C(=O)C12 (stereo not drawn) | -3.5% | -5.8% | . | . | . | -8.3%
FC(F)(F)c1cnc(-c2cnc3c(-c4ccc(Cl)cc4)cnn3c2)c(Cl)c1 | -11.5% | -0.1% | 4.1% | 2.8% | -2.5% | -8.4%
CCOC(=O)c1c(-c2ccccc2)nnn1-c1nc(OCC)nc(N2CCCCC2)n1 | 0.2% | -29.5% | -42.8%[inhibitor] | -0.4% | ? | ?
CN(C)CCCNc1cc(Cl)c(S(=O)(=O)N2CCCCC2)cc1C(=O)O | 1.4% | 8.2% | -3.7% | 0.3% | -6.2% | 0.3%

Reformatted: results already given
molecule,RECQ1 helicase,ALDH1A1 inh,SMN2 splice up,Luc counter,Lamin A splicing,Tau fibril ThT
O=C(Nc1ccc2oc(=O)ccc2c1)c1cccnc1Cl,-7.5%,?,-5.7%,-0.5%,-9.5%,-4.9%
O=C(c1ccncc1)N1CCN(C2CCCCC2)CC1,-6.9%,-11.8%,.,-2.6%,?,-5.0%
CC(C)NC(=O)C(OC(=O)c1ccccc1)C(OC(=O)c1ccccc1)C(=O)O (stereo not drawn),-3.4%,1.0%,-8.1%,0.1%,11.1%,0.5%
CCC1CCCCN1CCCNC(=O)CCCNC(=O)Cn1cnc2sc3c(c2c1=O)CCCC3 (stereo not drawn),i,-13.0%,-0.2%,2.7%,.,-2.1%
O=C(Nc1ccc2oc(=O)ccc2c1)c1ccco1,2.9%,?,-1.8%,-22.6%,1.7%,-17.0%
COc1cccc(/C=N/n2c(-c3cccs3)n[nH]c2=S)c1,-3.0%,?,-8.0%,-4.3%,2.1%,?
CCOC(=O)c1cc(C#N)c(Oc2ccccc2OC)nc1-c1ccccc1,-22.3%,-1.7%,-29.3%,-0.9%,8.0%,-12.9%
COC(=O)C1=NN(c2cccc(C)c2)C2C(=O)N(c3ccccc3OC)C(=O)C12 (stereo not drawn),-6.6%,?,-27.9%,1.4%,-1.8%,-0.7%
CCOC(=O)C1=NN(c2ccccc2)C2C(=O)N(c3ccccc3OC)C(=O)C12 (stereo not drawn),-3.5%,-5.8%,.,.,.,-8.3%

High-throughput results (PubChem BioAssay)
